RecA intein inh: Mtb RecA intein splicing inhibition. cell-free RecA intein splicing, fluorescence. inhibition, %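 (about 9 µM by stock and volumes)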. hit rate 0.75% among 290,000; in the data active = inhibition above about 30%; inconclusive = no clear call, values can overlap the other calls;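 also: 0% = vehicle wells and 100% = reference inhibitor control wells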
Target sequence (P9WHJ3 whole entry, looked up): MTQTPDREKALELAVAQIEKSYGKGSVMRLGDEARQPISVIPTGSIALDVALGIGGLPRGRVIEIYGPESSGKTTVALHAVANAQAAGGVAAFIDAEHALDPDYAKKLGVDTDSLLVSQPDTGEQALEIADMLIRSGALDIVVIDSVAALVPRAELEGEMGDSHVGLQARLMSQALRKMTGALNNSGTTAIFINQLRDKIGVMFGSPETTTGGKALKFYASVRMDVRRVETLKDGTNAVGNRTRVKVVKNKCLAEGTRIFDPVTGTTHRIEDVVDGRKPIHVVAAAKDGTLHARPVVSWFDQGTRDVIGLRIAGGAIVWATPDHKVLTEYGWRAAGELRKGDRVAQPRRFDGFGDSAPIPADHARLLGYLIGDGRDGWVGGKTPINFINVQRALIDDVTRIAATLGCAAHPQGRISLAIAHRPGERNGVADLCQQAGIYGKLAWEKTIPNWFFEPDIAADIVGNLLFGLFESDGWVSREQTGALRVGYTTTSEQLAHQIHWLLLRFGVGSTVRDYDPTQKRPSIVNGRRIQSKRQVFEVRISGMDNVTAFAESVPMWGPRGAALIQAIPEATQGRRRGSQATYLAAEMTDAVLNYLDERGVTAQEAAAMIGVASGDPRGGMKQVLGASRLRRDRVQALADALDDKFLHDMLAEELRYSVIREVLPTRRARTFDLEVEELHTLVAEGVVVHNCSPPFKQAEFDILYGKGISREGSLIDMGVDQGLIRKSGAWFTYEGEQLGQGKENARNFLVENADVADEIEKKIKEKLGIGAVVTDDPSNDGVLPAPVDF
Arbovirus anti: antivirals against arbovirus infection; arbovirus infection cell-based antiviral screen; inhibition, % at 10 µM; hit rate 0.37% among 200,000;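 active = inhibition from about 30%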;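 also: bluetongue infection of BSR cells; cell survival read as ATP light after 72 h; 0% = infected wells without compound and 100% = uninfected wells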
YopH inh: inhibitors of Yersinia enterocolitica YopH tyrosine phosphatase; fluorescence Ex485/Em525; inhibition, %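 (about 10 µM by stock and volumes)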; hit rate 0.16% among 140,000;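 active = inhibition of 50% or more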;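 also: controls were vehicle for no effect and minimum signal wells for full effect; inactives centre near -20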
Mtb growth: M. tuberculosis H37Rv growth inhibitors, H37Rv strain (AID 1626); M. tuberculosis H37Rv growth inhibition; higher % means a stronger effect; hit rate 0.95% among 220,000; inhibition, % at 10 µM; hits with a dose series show IC50 in µM;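 active = confirmed in a dose series; inconclusive = inhibition above 80% but not taken into the dose series; inactive = below 80% or under 30% at every dose of the series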;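 also: bacteria incubated seven days before Alamar blue readout; 0% = bacteria only wells and 100% = bacteria with antibiotic wells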
Mtb bLac sens: beta-lactam sensitization of Mtb H37Rv; hit rate 0.27% among 330,000; inhibition, % at 25 µM; M. tuberculosis H37Rv growth with meropenem, percent inhibition; hits of this screen are not shown here;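 active = about 74% or more and at least 40 points above the plate without the antibiotic, then above 30% in a dose series; inconclusive = first-round hits that could not be retested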;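 also: growth measured after seven days incubation then overnight dye step; 0% = bacteria only wells and 100% = bacteria with antibiotic; twin plates without the antibiotic show which effects depend on it; some results filed as inactive read as strong as hits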
Arbovirus anti repeat: recorded beside Arbovirus anti, whose call it bears; inhibition, %; measured here: 10K subset replicate screen; many hits read low in the repeat;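 first of two repeat runs on a subset; 0% = infected and 100% = uninfected wells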
Active calls of the source: *; i = inactive; ? = inconclusive; nt = not tested or not shown. These rows are one share of the data; rates above refer to the full screens.

The first 5 records, ahead of the listing:
SMILES	RecA intein inh	Arbovirus anti	YopH inh	Mtb growth	Mtb bLac sens	others
NCCCC[C@H](NC(=O)C1CCNCC1)c1nnc([C@@H](N)CO)o1	0.0	11.5	nt	-6.0%	-4.7
CC1Cc2ccccc2N1C(=O)CNc1ccccc1N1CCCCC1 (stereo not given)	-2.8	-0.3	nt	5.5%	-6.9
CC(NC(=O)c1ccc(Cl)cc1)c1nnc(SCC(=O)NC2=NCCS2)n1C (stereo not given)	4.4	nt	nt	nt	-3.6
Cc1ccc(CCc2nnc(SCC(=O)Nc3ccccc3Cl)n2-c2ccccc2)o1	0.4	-0.9	-26.0	1.7%	8.5
Cc1ccc(C)c(NC(=O)c2ccc(N(C)S(C)(=O)=O)cc2)c1	0.3	-2.5	-1.6	-4.8%	-14.9

This part in full, from the start:
SMILES	RecA intein inh	Arbovirus anti	YopH inh	Mtb growth	Mtb bLac sens	others
NCCCC[C@H](NC(=O)C1CCNCC1)c1nnc([C@@H](N)CO)o1	0.0	11.5	nt	-6.0%	-4.7
CC1Cc2ccccc2N1C(=O)CNc1ccccc1N1CCCCC1 (stereo not given)	-2.8	-0.3	nt	5.5%	-6.9
CC(NC(=O)c1ccc(Cl)cc1)c1nnc(SCC(=O)NC2=NCCS2)n1C (stereo not given)	4.4	nt	nt	nt	-3.6
Cc1ccc(CCc2nnc(SCC(=O)Nc3ccccc3Cl)n2-c2ccccc2)o1	0.4	-0.9	-26.0	1.7%	8.5
Cc1ccc(C)c(NC(=O)c2ccc(N(C)S(C)(=O)=O)cc2)c1	0.3	-2.5	-1.6	-4.8%	-14.9
COc1cccc(OC)c1C(=O)NNC(=O)c1ccc(F)cc1	1.1	2.5	nt	-2.5%	-6.3
Cc1cc(C(=O)CSc2nc(N)cc(N)n2)c(C)n1-c1cccc(C(F)(F)F)c1	0.4	21.1	-10.6	3.9%	2.0
Cc1ccc(OCCN2C(=O)c3ccccc3C2=O)c([N+](=O)[O-])c1	-0.4	-3.8	-40.1	-0.5%	-2.8
NS(=O)(=O)c1ccc2c(c1)C(=NO)c1cc(S(N)(=O)=O)ccc1-2	0.0	nt	nt	nt	-1.0
CCOC(=O)c1cnn(-c2ccccc2)c1NC(=O)c1ccccc1	-0.4	4.7	-4.3	-8.2%	-12.1
Cc1nnc(NC(=O)CSc2nccn2Cc2ccc(F)cc2)s1	-1.7	nt	nt	nt	-7.1
O=C(CSc1nnc(-c2ccoc2)o1)N1CCOCC1	-0.2	-2.7	5.5	-1.1%	?
Cn1nccc1C(=O)N1CCN(c2ccccc2Cl)CC1	0.3	nt	nt	nt	-25.0
Cc1ccc(CN=c2c([N+](=O)[O-])nn(-c3cccc(Cl)c3)n2O)cc1	3.6	-28.2	nt	2.8µM*	100.3
O=C(CNC(=O)c1ccccc1C(=O)O)c1ccccc1	1.0	-4.2	14.0	-4.5%	?
Cc1cc(=O)[nH]c(SCC(=O)c2c(N)n(C)c(=O)n(C)c2=O)n1	0.3	14.1	-8.2	-11.5%	-5.9
COC(=O)c1sc(NC(=O)CSc2nncs2)c(C(=O)OC)c1C	nt	4.2	-7.5	-8.9%	5.0
N#Cc1ccc(C(=O)NC2CCCc3ccccc32)cc1 (stereo not given)	0.2	11.8	nt	9.3%	2.4
COc1ccc(C(=O)C2CCCN(C(=O)c3ccc(OC)o3)C2)c(C)c1 (stereo not given)	5.1	nt	nt	nt	-8.8
O=C(Nc1nnc(SCc2cccnc2)s1)C1CC(=O)N(c2ccc(F)cc2)C1 (stereo not given)	1.7	nt	nt	nt	?
O=C(CNS(=O)(=O)c1cccc2nonc12)NCc1ccc(F)cc1	2.0	-6.5	-8.1	-9.1%	7.4
c1ccc(CCn2nnnc2CN2CCC(n3nnc4ccccc43)CC2)cc1	nt	4.0	-23.6	-5.9%	?
O=c1[nH]c2c(=O)[nH]cnc2nc1-c1ccccc1	i	nt	nt	nt	-5.6
CCn1c(COc2ccc(OC)cc2)nc2ccccc21	-1.3	-6.6	-10.3	2.0%	-3.7
CCCCCCc1cc2cc(S(=O)(=O)c3ccc(F)cc3)c(=O)oc2cc1O	-22.2	1.9	-4.1	-10.4%	-3.0

Entries listed so far with a furan ring, fused or not, in the order listed:
SMILES	RecA intein inh	Arbovirus anti	YopH inh	Mtb growth	Mtb bLac sens	others
Cc1ccc(CCc2nnc(SCC(=O)Nc3ccccc3Cl)n2-c2ccccc2)o1	0.4	-0.9	-26.0	1.7%	8.5
O=C(CSc1nnc(-c2ccoc2)o1)N1CCOCC1	-0.2	-2.7	5.5	-1.1%	?
COc1ccc(C(=O)C2CCCN(C(=O)c3ccc(OC)o3)C2)c(C)c1 (stereo not given)	5.1	nt	nt	nt	-8.8

Three compounds picked at random from the list so far, as already listed:
SMILES	RecA intein inh	Arbovirus anti	YopH inh	Mtb growth	Mtb bLac sens	others
O=C(CSc1nnc(-c2ccoc2)o1)N1CCOCC1	-0.2	-2.7	5.5	-1.1%	?
N#Cc1ccc(C(=O)NC2CCCc3ccccc32)cc1 (stereo not given)	0.2	11.8	nt	9.3%	2.4
Cc1nnc(NC(=O)CSc2nccn2Cc2ccc(F)cc2)s1	-1.7	nt	nt	nt	-7.1

More entries:
SMILES	RecA intein inh	Arbovirus anti	YopH inh	Mtb growth	Mtb bLac sens	others
Cc1ccc(N2CCN(/N=C/c3cccnc3)CC2)cc1	-1.6	nt	nt	nt	8.8
COc1ccc(CCNC(=O)C2CC3Cn4c(nc5cc(Cl)c(Cl)cc54)C3N2C)cc1 (stereo not given)	-3.2	nt	nt	-14.7%	-1.7
CC(C)c1cc(=O)[nH]c(SCC(=O)NC2CCCC2)n1	-1.8	nt	nt	nt	-5.9
COc1cc(CCC(=O)N2CCN(c3ccc(N4CCOCC4)nn3)CC2)cc(OC)c1OC	-4.7	6.6	-14.5	nt	-5.1	Arbovirus anti repeat=0.4
COc1ccccc1C(=O)NNC(=O)C(=O)Nc1ccc(C)c(Cl)c1	3.1	nt	nt	nt	97.5
Cc1ccc(C)c(OCC(=O)NC(Cc2c[nH]c3ccccc23)C(=O)O)c1 (stereo not given)	2.4	-4.4	nt	-1.6%	-0.6
COC(=O)C1CCN(C(=O)c2sc3nc(-c4ccc(F)cc4)cn3c2C)CC1	-1.6	5.0	-32.5	6.2%	-4.2
N#CC1(c2ccc(NC(=O)c3ccccc3)cc2)CCCC1	0.5	-2.9	-32.9	-2.3%	-6.0
CCCNc1ncnc2onc(C)c12	-0.9	3.8	nt	5.8%	-3.2
CCN1CCN(CCCN(Cc2ccco2)C(=S)Nc2cc(Cl)ccc2C)CC1	0.9	5.7	nt	4.7%	-3.0
CCOc1ccc(-n2cnnn2)cc1S(=O)(=O)NCCc1ccc(OC)c(OC)c1	0.6	23.5	19.8	-13.6%	-5.0
CN1CCC(Oc2ccc(Sc3ccccc3)cc2)CC1	-0.2	3.9	-21.4	4.4%	2.5
COc1ccc(/C=C/CN2CCN(Cc3cccc(OC)c3)C(CCO)C2)cc1 (stereo not given)	1.2	-12.0	nt	-4.6%	-3.4
CC1(C)CC(=O)C(Sc2ccccc2)=C(O)C1	-1.4	nt	nt	-4.6%	9.8
O=C(Nc1ccc([N+](=O)[O-])cn1)c1cc(-c2cccc(Br)c2)nc2ccccc12	-1.6	-9.6	-7.2	7.9%	-1.4
O=C(NC(=S)NCCO)c1cn(-c2ccccc2)nc1-c1ccccc1	-0.7	2.1	nt	9.3%	5.9
CC1CC/C(=C\c2ccc3c(c2)OCO3)C(=O)/C1=C/c1ccc2c(c1)OCO2 (stereo not given)	10.2	-2.6	-14.4	0.9%	2.1
Cc1ccccc1C(=O)NCCCNC(=O)c1cnccn1	-2.9	nt	nt	nt	1.8
CC(C)Oc1ccc(CCc2n[nH]c(=S)n2-c2ccccc2)cc1	-0.1	5.0	nt	-2.4%	5.4
N=C1S/C(=C\c2ccc(-c3ccccc3C(=O)O)o2)C(=O)N1c1ccc2c(c1)OCO2	2.1	9.5	nt	0.4%	nt
Cc1ccc(Oc2ccc(-c3nc(N)nc(N)n3)cc2)cc1C	-0.1	-1.3	-29.8	15.7%	12.4
Cc1cc(C)cc(N2C(=O)/C(=C\c3ccc(N4CCN(C)CC4)o3)C(=O)NC2=S)c1	-0.7	nt	nt	-7.6%	53.0
Cc1nc2ccccc2c2oc(C(=O)NCCCN3CCC(C)CC3)cc12	1.7	9.2	-16.2	-1.2%	1.8	Arbovirus anti repeat=5.2
CC(C)OCCCNC(=O)CCC(=O)NNc1nc2ccccc2c2nc(-c3ccccc3)nn12	1.3	-3.8	-28.1	44.9%	9.8
O=C(NC1CCCCC1)C(c1ccc(F)cc1)N(Cc1ccco1)C(=O)c1ccccn1 (stereo not given)	-0.9	3.9	nt	-10.8%	3.6
SMILES	RecA intein inh	Arbovirus anti	YopH inh	Mtb growth	Mtb bLac sens	others
COc1ccccc1CNC(=O)COc1ccc(Br)c(C)c1	9.2	nt	nt	nt	-25.3
CCN1CCN(CCc2nc3cc([N+](=O)[O-])ccc3n2C)CC1	7.5	nt	nt	-7.9%	8.0
Nc1nc(SCC(=O)NCCC(c2ccccc2)c2ccccc2)n[nH]1	3.5	2.4	-10.3	-5.2%	4.1
Cc1ccc(C(=O)Nc2nnc(S(=O)(=O)N3CCN(c4ccc(F)cc4)CC3)s2)cc1	-5.6	nt	nt	nt	-0.3
Cc1onc(-c2ccccc2)c1C(=O)Nc1nnc(N(C)Cc2ccccc2)s1	3.5	14.8	-36.8	3.4%	-1.4	Arbovirus anti repeat=-5.9
CN=C1S/C(=C\c2ccc(N3CCOCC3)c(F)c2)C(=O)N1C	-5.3	-15.7	-15.8	4.4%	8.1
O=C(Nc1ncccc1Cl)c1ccccc1F	-0.1	3.4	-25.6	-2.6%	4.5
COc1cccc(NC(=O)COC(=O)CC(NC(N)=O)c2ccc(Cl)cc2)c1 (stereo not given)	1.2	nt	nt	-2.9%	4.8
C#CCOCCOCCOCCNc1nc(N2CCN(C(=O)[C@H](Cc3ccc(O)cc3)n3cc(C(N)CC(C)C)nn3)CC2)nc(N2CCN(C(=O)[C@H](CCC(=O)O)n3cc(C(N)[C@H](C)CC)nn3)CC2)n1 (stereo not given in full)	-0.1	0.0	nt	1.2%	-1.7
Cc1cccc(C(=O)Nc2oc(-c3ccccc3)cc2C#N)c1	-6.3	-5.9	-7.7	-2.9%	16.1
O=C(Cc1ccc(-n2cccc2)cc1)NCc1ccccc1Cl	-1.6	-24.7	-29.6	13.6%	-1.9
S=c1[nH]nc(CNc2ccc(Cl)cc2)n1Cc1ccccc1	17.0	7.6	nt	-6.4%	-3.2
Cn1c(=O)n(C)c2cc(NS(=O)(=O)c3ccc4c(c3)CCCC4)ccc21	2.9	6.3	5.2	-2.6%	-1.0
CCOC(=O)c1c(NC(=O)CSc2nnc(Cc3ccccc3)o2)sc(C)c1C	1.8	11.8	-8.9	-13.2%	91.1
Cc1cccc(C(=O)NNC(=O)c2ccccc2O)c1	-0.4	nt	nt	nt	3.6
COc1cc(CCCN2CCNC[C@H]2Cc2ccc(O)cc2)cc(OC)c1OC	-2.3	nt	nt	nt	-7.4
Cc1nn(CC(=O)NCCCc2ccccc2)c(=O)c2cccn12	0.4	nt	nt	nt	1.2
CC(C)(C)Nc1nc(OCC(F)(F)F)nc(OCC(F)(F)F)n1	1.2	1.0	14.0	?	-2.8
Cc1nc(SCC2(C)CC2(Cl)Cl)n[nH]1 (stereo not given)	-0.4	5.7	nt	6.4%	7.4
COC(=O)C(C)Sc1nnc(-c2ccncc2)o1 (stereo not given)	-3.5	3.4	-18.4	-27.9%	-1.8	Arbovirus anti repeat=9.0
O=C1NC(=Nc2ccccc2)SC1Cc1ccccc1 (stereo not given)	2.1	2.4	nt	-7.0%	-6.3
Cc1ccc(-n2c(SCC(=O)NCc3ccc4c(c3)OCO4)nnc2-c2cccnc2)c(C)c1	2.2	-9.2	-109.8	nt	nt
